# Screens from PubChem.
# 4-MU autofl = qHTS Assay for Spectroscopic Profiling in 4-MU Spectral Region; compound autofluorescence, 340/450 nm, 4-MU equivalents; active compounds read high; max dye-equivalent concentration, M; 11% of 59,000 active; in the data active = max dye-equivalent concentration above about 10 nM; inconclusive = mostly about 1.1 nM to 9.6 nM
#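 Compounds in 100 mM Tris, pH 8.0, sat 15 min at room temperature before fluorescence was read at 340 nm excitation/450 nm emission; a per-plate six-point 4-MU standard curve converted signals to dye-equivalent concentration at each compound concentration.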
# CRE-bla Fsk = Cell signaling CRE-BLA (Fsk stim); CHO CRE-bla reporter (cAMP response element driving beta-lactamase), forskolin EC10, beta-lactamase ratio; Potency, µM (titrated, usually from 38.2 µM), inactives show at the highest dose activity change, negative = inhibition, usual class: activators; 2.5% of 71,000 active; active = well fitted activation curve with a large enough effect in the signal ratio, with a control signal flat, not every such curve was filed as active; inconclusive = small, poorly fitted or top-dose-only effect, or effect the other way, or a change in a side signal; the % refers to the signal ratio; also: potency is read from the fitted curve at half-maximal effect; % of control where 0% means no effect
#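 Reporter-gene assay: CHO cells with beta-lactamase behind cAMP responsive elements, co-treated with compound and EC10 NKH 477 for 3 hours at 37 degrees Celsius. Activity came from the 460/530 nm CCF4 emission ratio.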
# Ub-GFP proteasome = Ubiquitin-GFP Assay. Ubiquitin-GFP reporter cells, proteasome inhibition, GFP fluorescence; response scale: untreated = 0%, 10 µM MG-132 = 100%. Potency, µM (top dose mostly 45.9 µM), without a hit: top-dose activation (GFP accumulation), usual class: activators. 67,000 tested, under 10 active. AID 526, 2006; active = well fitted activation curve with a large enough effect, not every such curve was filed as active; inconclusive = small, poorly fitted or top-dose-only effect, or another doubt; inactive = no such curve, though single readings can be large or run the other way; also: potency is read from the fitted curve at half-maximal effect
#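 GFP accumulation read-out: laser plate cytometry counting ubiquitin(G76V)-GFP-expressing U2OS cells after 4 hr compound exposure at 37 °C. Titrations spanned 46 uM to 2.9 nM; 0% = basal, 100% = 10 uM MG-132; concentration-response curves fitted.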
# Texas Red fluor = qHTS Assay for Spectroscopic Profiling in Texas Red Spectral Region; Compound fluorescence, Texas Red channel, 547/618 nm; active compounds read high; max dye-equivalent concentration, M; 0.06% of 59,000 active; in the data active = max dye-equivalent concentration above about 10 nM; inconclusive = between about 1.1 nM and that limit
#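 Texas Red-region profiling: compounds in 100 mM Tris pH 8.0 were read at 547/618 nm after 15 min at room temperature. Intensities were normalized against a six-point Texas Red standard series to give dye-equivalent concentration.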
# Fluorescein autfl = qHTS Assay for Spectroscopic Profiling in Fluorescein Spectral Region; 0.91% of 59,000 active; AID 593, 2007; Compound autofluorescence, 480/540 nm, fluorescein-equivalent; active compounds read high; max fluorescein-equivalent concentration, M; in the data active = max fluorescein-equivalent concentration above about 10 nM; inconclusive = between about 1.1 nM and that limit
#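 Compounds (23 nL) in 100 mM Tris pH 8.0, 15 min at room temperature, then fluorescence read at 480 nm excitation/540 nm emission. Signal converted to fluorescein-equivalent concentration from an on-plate fluorescein standard curve.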
# ERK AVP inh = qHTS Assay for Inhibitors of the ERK Signaling Pathway using a Homogeneous Screening Assay. Potency, µM (titrated, usually from 57.5 µM), for the others: at the highest dose activity, negative = inhibition, most hits filed as inhibitors. 0.99% of 72,000 active. HEK293-V1b, vasopressin-stimulated pERK AlphaScreen. AID 995, 2007; also: potency is read from the fitted curve at half-maximal effect; % is scaled to controls: 0 for no effect and ±100 for the full control effect; nearly all actives have a fitted effect of over 55% in size
#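 HEK293 cells stably expressing V1b receptor, preincubated 30 min at 37 °C with compound, then stimulated 5 min with 25 nM vasopressin. Phospho-ERK by AlphaScreen SureFire after 5 h RT; normalized to DMSO and vasopressin; AC50 by Hill fit.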
# HBB splicing = qHTS Assay for Modulators of Hemoglobin Beta Chain Splicing; HBB splicing reporter cell assay, activation; EGFP reporter with mutant IVS2-654 intron; response scale: normalised to 500 nM splice-correcting PNA; Potency, µM (titrated, usually from 46.1 µM), inactives show at the top dose activation, usual class: activators; 0.06% of 65,000 active; also: potency is read from the fitted curve at half-maximal effect; 0% is about no effect
#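 Compounds were applied for 2 days to HeLa EGFP-654 cells, 500/well in Optimem with 2% FCS. The reporter's EGFP is disrupted by mis-splicing of beta-globin intron IVS2-654. Readout: summed well GFP fluorescence from 488 nm laser scanning; reference was 500 nM antisense […] 654 PNA.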
# Epigenetic mod = qHTS Assay for Epigenetic Modulators | mouse C127i GFP locus derepression, cytometry, 30 h | Potency, µM (highest dose often 46.1 µM), for the others: at the highest dose GFP derepression (activation) | 0.09% of 68,000 active; also: % of control where 0% means no effect
#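 Derepression screen: silenced CMV-GFP reporter in murine C127i cells, 30 h compound incubation at 37 C, washed cells imaged by laser-scanning cytometer to enumerate GFP-expressing objects of 20 to 120 um.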
# A350 autofl = qHTS Assay for Spectroscopic Profiling in A350 Spectral Region. Compound autofluorescence, 340/450 nm, Alexa 350 dye-equivalents; active compounds read high. max dye-equivalent concentration, M. 11% of 59,000 active; in the data active = max dye-equivalent concentration above about 10 nM; inconclusive = mostly about 1.1 nM to 9.6 nM
# Luciferase inh = qHTS Assay for Inhibitors of Firefly Luciferase | Luciferin 4-monooxygenase (Photinus pyralis), P08659 | purified firefly luciferase, luminescence, 8 min | Potency, µM (highest dose often 57.1 µM), without a hit: top-dose activity change, negative = inhibition, usual class: inhibitors | 2.2% of 72,000 active | AID 411, 2009; also: potency is read from the fitted curve at half-maximal effect; % is scaled to controls: 0 for no effect and ±100 for the full control effect; nearly all actives have a fitted effect of over 40% in size
# Target sequence (P08659 whole entry, looked up): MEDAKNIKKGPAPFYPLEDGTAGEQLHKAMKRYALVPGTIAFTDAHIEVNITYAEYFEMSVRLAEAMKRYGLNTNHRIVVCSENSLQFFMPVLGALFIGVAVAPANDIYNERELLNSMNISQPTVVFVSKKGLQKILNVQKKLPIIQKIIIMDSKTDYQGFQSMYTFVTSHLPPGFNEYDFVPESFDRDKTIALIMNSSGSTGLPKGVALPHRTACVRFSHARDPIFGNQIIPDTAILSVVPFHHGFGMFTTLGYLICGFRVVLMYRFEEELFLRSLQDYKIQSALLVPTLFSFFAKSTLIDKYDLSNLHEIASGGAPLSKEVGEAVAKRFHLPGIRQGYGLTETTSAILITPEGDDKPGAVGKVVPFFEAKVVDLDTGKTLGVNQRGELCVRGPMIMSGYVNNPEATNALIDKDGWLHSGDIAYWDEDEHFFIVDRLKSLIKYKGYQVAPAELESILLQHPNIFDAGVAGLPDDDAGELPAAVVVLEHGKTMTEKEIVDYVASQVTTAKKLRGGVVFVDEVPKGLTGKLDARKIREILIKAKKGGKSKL
#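 Luminescence read-out after 8 min at room temperature; enzyme reaction used luciferin plus 10 uM ATP (linear range) in imidazole buffer pH 7.2 with KCl, MgCl2, Tween 20 and BSA. Each sample was run as a titration.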
# * hit, by the source's call; i = inactive; u = inconclusive; x = no result given; [ ] = remark or other dose. Unless noted, calls follow the shape of the dose curve; as a rule, active = well fitted curve in the direction sought with a large enough effect; inconclusive = small, poorly fitted or top-dose-only effect, or another doubt; inactive = no such curve, though single readings can be large; an effect the other way counts as inactive or inconclusive. The list is partial; the hit share may differ from the screen's.
Structure,4-MU autofl,CRE-bla Fsk,Ub-GFP proteasome,Texas Red fluor,Fluorescein autfl,ERK AVP inh,HBB splicing,Epigenetic mod,A350 autofl,Luciferase inh
O=C(O)/C=C\[C@H](O)c1ccc(Cl)cc1,i,-8%,0%,u,u,-3%,1.0%,0%,i,1%
CC1(N2CCOCC2)CC2(O)C(=[N+]1[O-])CCc1c2no[n+]1[O-] (centres undefined),x,-7%,-16%,x,x,15%,-2.9%,5%,x,-1%
CCOC(=O)C1=C(CC)Nc2ccccc2N=C1NC(=O)Cn1cnc2ccccc2c1=O,i,-14%,-11%,u,i,13%,-0.7%,0%,i,1%
Cc1cc2c3nonc3ccc2n1-c1ccccc1,x,u,-8%[9.17 µM],x,x,91%[activator],-1.8%[0.0738 µM],0%,x,1%
COC(=O)c1ccc(OC(=O)c2ccccn2)cc1,i,-5%,-3%,i,i,1%,3.9%,-1%,i,-9%
CCCc1cc(-n2ccnc2)n2c(nc3ccccc32)c1C#N,i,u,-4%,i,i,-5%,5.4%,4%,i,-1%
COc1ccc2[nH]cc(CCNC(=O)C3CCCNC3=O)c2c1 (centres undefined),x,-3%,15%,x,x,-2%,-0.1%,x,x,1%
CC(=O)NC(Cc1ccc(C(C)C)cc1)C(=O)NC1CCN(c2nc(C)cc(C)n2)CC1 (centres undefined),i,-9%,-1%,u,i,7%,0.4%,-2%,i,-34%

# The closing two compounds of the section before lead into the next.
Structure,4-MU autofl,CRE-bla Fsk,Ub-GFP proteasome,Texas Red fluor,Fluorescein autfl,ERK AVP inh,HBB splicing,Epigenetic mod,A350 autofl,Luciferase inh
COc1ccc2[nH]cc(CCNC(=O)C3CCCNC3=O)c2c1 (centres undefined),x,-3%,15%,x,x,-2%,-0.1%,x,x,1%
CC(=O)NC(Cc1ccc(C(C)C)cc1)C(=O)NC1CCN(c2nc(C)cc(C)n2)CC1 (centres undefined),i,-9%,-1%,u,i,7%,0.4%,-2%,i,-34%
COc1ccc(-c2cc(-c3ccccc3)nc(N3CCCC3)n2)cc1OC,x,3.2µM*,1%[9.17 µM],x,x,30%[activator],-0.9%[0.0738 µM],2%,x,1%
O=S(=O)(c1ccccc1Cl)N1CCCC(c2nc(-c3cccnc3)no2)C1 (centres undefined),i,6%,-6%,i,i,0%,x,-1%,i,2%
O=C(CN1CCOCC1)Nc1ncc(Br)cc1Br,i,19%,-9%,i,i,1%,-0.8%[57.5 µM],2%,i,3%
N#Cc1cccc(NC(=O)N2CCC3(CC2)CCN(C(=O)c2cnccn2)CC3)c1,i,1%,-4%,i,u,-6%,-0.2%,-2%[9.22 µM],i,2%[11.4 µM]
O=c1cc(NCc2ccco2)[nH]c(=O)n1-c1ccc(Br)cc1,i,7%,-4%,i,i,4%,-0.2%,2%,i,0%
C/C=C(\CS(=O)(=O)c1ccccc1)S(=O)(=O)c1ccccc1,i,1%,u,i,u,1%,u,3%,i,-5%
COc1cc(C)c(S(=O)(=O)NCc2ccc3c(c2)OCO3)cc1C,x,-7%,14%,x,x,-1%,0.1%,x,x,-1%
CCOc1ccccc1-n1c(SCC(=O)Nc2nccs2)nnc1-c1ccoc1C,3.6e-08M*,3%,-1%,i,i,6%,2.2%,0%,4.5e-08M*,1%
CSCC[C@@H](C(=O)O)N1Cc2ccccc2C1=O,x,-12%,4%,x,x,x,0.7%,x,x,0%
Cc1cc(N2CCCCC2)n2ncc(-c3ccccc3)c2n1,5.5e-08M*,u,8%,u,i,66%[activator],2.5%[1.84 µM],-2%,1.2e-08M*,4µM*
COC(=O)c1c(NC(=O)CN2CCN(Cc3ccc4c(c3)OCO4)CC2)sc(C)c1C,i,u,-2%,i,i,-6%,-4.3%,2%,i,2%
COc1ccc(N=CC2=C(O)CCCC2=O)cc1,x,u,-16%,x,x,-26%,-5.6%,-6%,x,-14%
COCCn1c(=O)[nH]c2cc(C(=O)NCCN3CCN(c4ccccc4)CC3)ccc2c1=O,1.8e-08M*,2%,-2%,i,i,3%,0.2%,4%,1.6e-08M*,0%
Cc1cc(C)n(-c2nc3ccccc3nc2Nc2ccc3[nH]c(=O)[nH]c3c2)n1,i,u,u,i,u,-26%,u,24%,u,-1%
Cc1[nH]c(=O)[nH]c(=O)c1S(=O)(=O)NCCOC12CC3CC(CC(C3)C1)C2,i,-3%,-1%,i,i,-9%,-0.6%,0%,i,1%
COc1nc(NC(C)=O)nc(C)c1Br,x,u,7%,x,x,-12%,0.8%[9.22 µM],0%,x,0%
CCOc1ccccc1-n1c(SCC(N)=O)nnc1-c1ccccc1,i,-6%,-6%,i,i,-12%,x,-1%,i,4%
O=C1CC(c2cccc(Br)c2)C2=C(CCCC2=O)N1 (centres undefined),4.3e-08M*,6%,7%,i,u,-3%,-0.9%,3%,4.4e-08M*,0%
O=C(Nc1ccc2c(c1)OCO2)C1CCCCN1S(=O)(=O)c1ccc(F)cc1 (centres undefined),i,u,4%,i,u,-19%,5.4%[1.84 µM],-4%,i,-2%
COC(=O)c1ccc(NC(=O)C2CCCN2S(=O)(=O)c2ccc(F)cc2)cc1 (centres undefined),i,3%,2%,i,i,11%,2.2%[57.5 µM],1%,i,4%
Cn1cc(CNC(=O)C2c3ccccc3Oc3ccccc32)cn1,i,-4%,0%,i,u,52%[activator],2.4%,3%,i,3%
Cc1ccccc1Nc1nc(N)nc(CN2CCN(c3ccccn3)CC2)n1,i,-8%,-1%,i,u,u,-0.1%,-2%,i,-1%
O=C(Cc1nc(-c2ccc(Br)s2)cs1)NCCN1CCOCC1,i,-5%,-1%,i,i,u,-0.3%[57.5 µM],-2%,i,3%
Cc1ccc(NC(=O)CN(C)C(=O)CCCN2C(=O)c3ccccc3C2=O)cc1,i,3%,1%,i,i,-8%,-0.5%,0%,i,2%
Nc1c(C(O)(C(F)(F)F)C(F)(F)F)ccc2ccccc12,u,-15%,-7%,i,u,0%,5.6%[0.369 µM],0%,1.1e-08M*,3%
O=C(Nc1nc(-c2cccnc2)cs1)c1ccc(S(=O)(=O)N2CCOCC2)cc1,i,-9%,-2%,i,i,-1%,-0.7%,-7%,i,-1%
Clc1ccc2c(N3CCC(CCC4CCN(c5ncnc6cc(Cl)ccc56)CC4)CC3)ncnc2c1,i,7%[7.6 µM],9%[9.17 µM],u,i,12%[11.5 µM],1.1%[9.22 µM],0%[9.22 µM],i,-1%[11.4 µM]
c1ccc(CSc2ncn(-c3ccccc3)n2)cc1,x,12%,-3%,x,x,26%,-2.8%,1%,x,u
CCn1c(SCC(=O)Nc2cc(C)on2)nnc1-c1cccs1,i,3%,1%,u,i,-4%,0.2%[57.5 µM],-1%,i,0%
COc1cccc(OC)c1C(=O)Nc1c(C)n(C)n(-c2ccccc2)c1=O,x,u,0%[9.17 µM],x,x,-18%,0.3%[0.0738 µM],0%,x,1%
COC(=O)c1[nH]c2cc(OC)c(OC)cc2c1NC(=O)c1cccc(OC)c1,i,10µM*,14%,i,i,-14%,-1.7%[1.84 µM],-2%,i,7.9µM*
CC(C)(C)OC(=O)NC(CCCCNC=O)C(=O)O (centres undefined),i,-4%,8%,i,i,-6%,-1.3%,3%,i,0%
Cc1cc(NC(=O)CSc2nc(-c3cccs3)cc(C(F)(F)F)n2)no1,9.9e-08M*,3.2µM*,7%,u,i,-5%,0.2%[57.5 µM],10%,9.2e-08M*,0%
O=C(Cn1c(=O)n(CC2CCCO2)c(=O)c2ccccc21)c1ccccc1 (centres undefined),i,2%,-7%,i,i,u,-0.2%,4%,i,-1%
O=C(c1ccc2c(c1)OCO2)N1CCN=C1SCc1ccccc1,x,18%,-6%,x,x,-14%,0.4%,-3%,x,1%
CCCOc1nc(N)c(C#N)c(-c2ccccc2F)c1C#N,i,u,8%,i,i,u,x,-1%,i,-2%
Cc1ccc(-c2nnn(CC(=O)O)n2)cc1,i,2%,0%,i,i,-12%,0.2%,3%,i,2%
COc1cccc(C(=O)Nc2nc(-c3ccc(S(=O)(=O)N4CCOCC4)cc3)cs2)c1,i,-6%,-3%,i,i,u,-0.6%,2%,i,-3%
COCCn1nnnc1CN1CCN(c2cccc(C(F)(F)F)c2)CC1,i,-11%,-4%,u,i,12%,-0.4%[57.5 µM],4%,i,-2%
O=C(CCc1ccccc1)Nc1nc2n(n1)C(c1ccc(Cl)cc1)CC(=O)N2 (centres undefined),i,u,-4%,i,i,4%,0.7%[57.5 µM],0%,i,4%
CCOc1ccccc1-n1c(SCC(=O)NC)nnc1-c1ccco1,i,-6%,-3%,i,u,2%,0.6%,-2%,u,1%
c1ccc(C(c2nnnn2C2CCCCC2)N2CCc3ccccc3C2)nc1 (centres undefined),1.8e-07M*,-5%,3%,i,i,-24%,x,-1%,1.4e-07M*,0%
